CDC25B CDK2 inh: human CDC25B-CDK2/CyclinA binding inhibition; P30305+P24941; z-score (test concentration not listed); actives 0.72% (n = 94,000); HTRF CDC25B-CDK2/CyclinA binding, anti-His/anti-Flag; stronger effect = higher value; AID 1259370;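 also: score is relative to mean and SD of negative controls; strong numbers were not always called active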
TAR Tat displ: HIV-1 TAR-Tat binding disruption. HIV-1 TAR RNA, Tat peptide displacement FRET; stronger effect = higher value. z-score (concentration not given with the values). AID 1259389. actives 0.6% (n = 100,000);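 also: score is relative to mean and SD of negative controls; some compounds called inactive have numbers as strong as hits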
Active calls of the source: *; / = no result given.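 The calls were made as follows: active = z-score from 3 up in half or more of its runs; inactive = the rest.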

Sample of the layout, 2 compounds:
SMILES	CDC25B CDK2 inh	TAR Tat displ
CCOc1ccc2nc(NC(=O)Nc3ccc(OC)cc3OC)sc2c1	-2.8	1.6
COc1ccc(-c2onc(C)c2C)cc1S(=O)(=O)NCCc1sccc1C	/	0.45

Main list (from the top)
SMILES	CDC25B CDK2 inh	TAR Tat displ
CCOc1ccc2nc(NC(=O)Nc3ccc(OC)cc3OC)sc2c1	-2.8	1.6
COc1ccc(-c2onc(C)c2C)cc1S(=O)(=O)NCCc1sccc1C	/	0.45
CCCNC(=O)C(CC)n1nc(CC)n2c(cc3oc(C)cc32)c1=O (configuration not stated)	-0.82	0.55
COCCc1nn2c(=O)cc(COC(=O)COc3ccccc3Cl)nc2s1	/	0.58
C=CCN1C(=O)C(O)(CC(=O)c2ccc(F)cc2)c2cc(Br)ccc21 (configuration not stated)	-0.81	/
Cc1coc(C)c1C(=O)CC1(O)C(=O)N(C)c2ccccc21 (configuration not stated)	-2.3	0.45
CN(CC(=O)NC(C)(C)C)S(=O)(=O)c1ccc2[nH]c(=O)ccc2c1	/	1.5
CC1CCN(c2nc(Nc3ccc(Cl)cc3)c3cnn(C)c3n2)CC1	/	0.58
Cc1cccc(Nc2nn3nnnc3c3ccccc23)c1	-5.2	-0.19
COC(=O)Cc1cc(=O)n2[nH]c(NCc3ccc(SC)cc3)nc2n1	-2.1	0.82
CC(=O)c1ccc(OCc2ccccc2)c(C)c1OC(=O)c1cccs1	-1.2	/
Cc1cccc(-n2ncc3c2ncn2c(COc4c(C)cccc4C)nnc32)c1	0.37	0.9
CCOC(=O)CN(C(=O)COc1nc(C)cc(C)c1C#N)c1ccccc1	-1.6	/
CCc1ccccc1NC1=NS(=O)(=O)C(c2ccc(C)cc2)=C1C	-1.9	1.8
COc1ccc(-c2onc(C)c2C)cc1S(=O)(=O)Nc1c(C)cc(C)cc1C	/	1.6
Cc1ccc2scc(N3CCCC3)c(=O)c2c1	/	0.56
O=S(=O)(NCCc1csc2nc(-c3cccc(F)c3)nn12)c1cc(F)ccc1F	/	-0.27
CCN(CC)c1nc(N)c([N+](=O)[O-])c(Nc2ccc(OC)cc2)n1	/	0.57
CCC1CCc2nc3sc(C(=O)Nc4ccc(F)cc4F)c(N)c3cc2C1 (configuration not stated)	-0.78	/
Cc1nn(-c2ccc(N3CCCCC3)nn2)c(C)c1CCC(=O)NC1CCCCC1	/	-0.9
Cc1ccc(-c2c(N(C)c3ccc(Br)cc3)c(=O)c2=O)cc1C	/	2.6
Cc1cc(C)nc(SCCn2c(N3CCC(C)CC3)nc3c2c(=O)[nH]c(=O)n3C)n1	-0.75	0.33
CSc1cccc(CNc2ccc(Cl)nn2)c1	-1.2	0.42
CCCCCN[C@H]1CS(=O)(=O)C[C@@H]1S(=O)(=O)c1ccc(F)c(C)c1	-2.1	-0.87
CC(C)NC(=O)C1CCCN1c1nnc(N2CCCC2=O)s1 (configuration not stated)	-1.9	2.9
Cn1ncc2c(NCc3ccc(F)cc3)nc(N3CCN(C4CCCCC4)CC3)nc21	/	1.1
CC1CCN(c2nc(N(C)c3ccccc3)nc(N)c2[N+](=O)[O-])CC1	/	0.46
O=C(NCCc1ccccc1)N1CCCC1c1cccs1 (configuration not stated)	0.3	0.46
CCCn1ccc2cc(S(=O)(=O)N3CCN(S(=O)(=O)c4c(C)nn(C)c4C)CC3)ccc21	/	-0.49
O=C(CCCCCn1c(=O)[nH]c2ccccc2c1=O)NCCc1c[nH]c2ccccc12	/	1.4
Cc1nc(N2CCN(Cc3ccc4c(c3)OCO4)CC2)[nH]c(=O)c1C	-1.1	1.4
Cc1noc2ncnc(Nc3ccc(F)c(Cl)c3)c12	/	1.1
CN(C)CCn1c2c(c(SCC(=O)Nc3cccc(F)c3)nc1=O)CCC2	/	0.45
CCCCN(C)C(=O)Nc1ccc2c(c1)N(CC)C(=O)c1ccccc1S2	0.32	-1.1
Cc1ccc(C)c(NS(=O)(=O)c2ccc3c(c2)CC(=O)N3)c1	-1.1	0.7
O=C(Cn1cnc2c(nc3n2CCCCC3)c1=O)Nc1ccc(Cl)cc1	/	0.43
CC1CCN(S(=O)(=O)c2cc(Br)cc3c2N(C(=O)C2CC2)CC3)CC1	0.37	/
CC(C)=C1C=CC(=C(C)C)S1(=O)=O	-2.9	/
COc1ccc(NC(=S)NCCSc2ccc(Cl)cc2)cc1	-1.2	/
COc1ccc(Nc2nc(NCCN3CCOCC3)nc(Nc3ccc(OC)cc3)n2)cc1	-1.1	1.7
CC(C)c1ccc(S(=O)(=O)c2nnn3c2nc(NCc2ccco2)c2ccccc23)cc1	-2	-1.6
CCCCCc1ccc(C(=O)NNC(N)=S)cc1	-0.92	/
O=C(CSc1ncn[nH]1)Nc1ccc(F)cc1	0.41	1.4
OCCN1CCN(c2ncc(Cl)cc2C(F)(F)F)CC1	-0.64	/
Oc1ccc(F)cc1-c1ccnc2cc(-c3ccc(Cl)cc3)nn12	0.57	0.01
O=C(CCc1nnc2ccc(NCc3ccc4c(c3)OCO4)nn12)N1CCCCC1	/	0.05
Cc1ccc(-c2onc(C)c2C)cc1S(=O)(=O)NC1CC1	/	0.02
Cc1nn2c(=O)cc(CSCC(=O)Nc3ccccc3F)nc2s1	/	-0.43
NC(=O)c1cc(S(=O)(=O)NCc2cccs2)cs1	/	1.3
CCOC(=O)N1CCN(C(=O)CNC(=O)Cn2cnc3sc(C)c(C)c3c2=O)CC1	/	0.75
COC(=O)c1cc(S(=O)(=O)N2CCSC2)oc1C	-2.2	/
CC(C)(C)NC(=O)CCC1=NS(=O)(=O)c2ccccc2N1	/	2.7
CC(C)CC(O)(c1ccc(F)cc1)C(CN1CCOCC1)c1ccccc1 (configuration not stated)	-2.3	-0.34
COc1ccc(Cl)cc1NC1OC(=O)c2ccccc21 (configuration not stated)	-1.2	-0.86
O=C(NCc1csc(-c2cccs2)n1)[C@H]1CSCN1C(=O)c1ccccc1Br	/	1.9
O=[N+]([O-])c1cccc(Cl)c1Oc1ccc(S(=O)(=O)N2CCOCC2)cc1	-0.45	/
Cn1ncc2c(Nc3ccccc3)nc(NCCCN3CCOCC3)nc21	/	1.7
Cc1nc(-c2ccccc2)sc1CCNS(=O)(=O)c1ccc2c(c1)OCCO2	/	1
CSc1nn2c(=O)cc(CSc3nnc(C)s3)nc2s1	-0.39	0.37
CCN1C(=O)c2ccccc2Sc2ccc(NC(=O)NC3CCCC3)cc21	-1.7	0.8

(continued)
SMILES	CDC25B CDK2 inh	TAR Tat displ
CN(Cc1ccccc1)c1ncnc2c1sc1nc3c(cc12)COC(C)(C)C3	/	0.07
COC(=O)c1cc(S(=O)(=O)N(C)CC(=O)NC2CCCCC2)cn1C	/	-0.55
CCNC(=O)c1c(NC(=O)c2snnc2C)sc2c1CCCC2	-1.5	-0.06
Cc1ccc2nc(-c3cccnc3)c(NC3CCCCC3)n2c1	-2.4	/
CC1(C)CC(CCC(=O)Nc2nncs2)C(=O)O1 (configuration not stated)	0.49	/
CSc1c(C#N)c(N)nc(SCc2ccc(F)c(F)c2)c1C#N	-1.8	/
CC(C)CCNC(=O)Nc1ccc2c(c1)N(C)C(=O)CS2	-0.84	-1.2
O=C(CN1C(=O)CCC1=O)Nc1nc(-c2cc([N+](=O)[O-])cs2)cs1	/	0.59
Cc1nc2ccccn2c(=O)c1Cc1nnc(SCC(=O)Nc2ccccc2)n1C	-0.31	-1.7
CC(C)(C)C(=O)c1cn(CC(=O)N2CCOCC2)c2ccccc12	-1	-0.65
CCn1c(SCC(=O)Nc2ccc3c(c2)n(C)c(=O)n3C)nnc1-c1cc2ccccc2o1	/	1.6
Cc1nc2scc(C)n2c(=O)c1S(=O)(=O)N1CCC(C)CC1	-1.6	2.9
Cc1nn(-c2cccc(Cl)c2)c2nc(-c3ccco3)cc(C(F)(F)F)c12	0.7	-2.4
Cc1ccc2nc(-c3ccccn3)oc2c1	-0.77	-0.87
COc1ccc(-c2cc(=O)oc3cc4occ(-c5cccc(OC)c5)c4cc23)cc1	-1.8	/
CCCC(=O)Oc1ccc(N(C)C2=NS(=O)(=O)c3ccccc32)cc1	-0.24	/
O=C(Nc1cccc(O)c1)c1cccc(-n2cnnc2)n1	/	0.96
CCOc1ccc(-c2nnc3ccc(SC(C(C)=O)C(=O)N(C)C)nn23)cc1 (configuration not stated)	-1	/
O=C(c1nsnc1-c1ccccc1O)N1CCCC1	0.14	-0.35
Cc1ccc(-c2c(N3CC(C)CC(C)C3)c(=O)c2=O)cc1C (configuration not stated)	/	1.7
O=C(O)c1nc(N2CCCCC2)c2c(-c3cccc(F)c3)noc2n1	0	0.39
Cc1ccc2oc(-c3cc(Br)ccc3O)c(O)c(=O)c2c1	2.6	-4.4
CCn1c2ccccc2c2cc(NC(=O)Cn3ncc4c([nH]c5ccccc54)c3=O)ccc21	/	-0.81
CCCNC(=O)Cn1c(=O)oc2cc(S(=O)(=O)N3CC(C)CC(C)C3)ccc21 (configuration not stated)	-1	-0.4
CNC(=O)c1c(NC(=O)C2CCCCC2)sc2c1CCC2	/	0.32
Cc1cc2n(n1)C(c1ccsc1)Nc1ccccc1-2 (configuration not stated)	-0.28	0.48
O=C(COCc1cc(-c2ccc3c(c2)OCO3)on1)NCc1cccnc1	/	0.55
Cc1c(C)n(Cc2cccnc2)c2ncn3nc(-c4ccc(C(C)(C)C)cc4)nc3c12	-3	-0.67
CCN(CC)CCNC(=O)C1CCN(c2nnc(-n3cccc3)s2)CC1	-0.38	2.4
CC(C)(C)NC(=O)CSc1nc(-c2ccccc2F)nc2cc(=O)[nH]n12	/	1.4
O=C(Nc1nnc(SCc2cc(=O)c3cccc(Cl)c3[nH]2)s1)C1CCCCC1	/	0.5
CCOc1cc(/C=C2\SC(=O)N(C)C2=O)ccc1OCc1ccc(C(=O)O)cc1	5.1	/
COc1ccc(C2NC(=O)NC(O)(C(F)(F)F)C2C(=O)c2ccc(Cl)cc2)cc1 (configuration not stated)	-2.4	/
CCc1cc(Nc2ccccc2)n2ncnc2n1	-1.7	1.8
O=S1(=O)CCC(S(=O)(=O)N2CCCC2)C1 (configuration not stated)	-0.88	-0.91
O=C1CC(c2ccccc2)Sc2nc3ccccc3n21 (configuration not stated)	-0.55	-2.1
O=c1nc(SCc2ccccc2)c2c(n1-c1ccccc1)CCC2	-0.75	0.9
O=C(Cn1ncc2c([nH]c3ccccc32)c1=O)N(Cc1ccco1)C1CCCCC1	/	-0.54
COCCn1c(SCC(=O)c2ccc(Br)cc2)nc2cc(C(=O)OC)ccc2c1=O	/	1.6
Nc1c(-c2nc(-c3ccccc3)no2)nnn1-c1ccc(Br)cc1F	/	-0.06
Cc1ccc2ncnc(NC3CCCCC3)c2c1	0.55	0.46
Cc1ccc(N2CN=C3SCC(=O)N3C2)cc1C	-0.87	/
O=C(CN1CCN(C2c3ccccc3-c3ccccc32)CC1)c1ccc2c(c1)OCO2	-0.67	/
COc1ccc(C2=CC(c3ccccc3Cl)n3nc(CCCO)nc3N2)cc1 (configuration not stated)	-1.6	1.6
O=C(c1cnc2sc(N3CCCC3)nn2c1=O)N1CCN(Cc2ccccc2)CC1	/	-0.72

Full records as entered above. Values in the order: CDC25B CDK2 inh, TAR Tat displ
`O=c1nc(SCc2ccccc2)c2c(n1-c1ccccc1)CCC2` reads -0.75, 0.9
`O=C(CN1CCN(C2c3ccccc3-c3ccccc32)CC1)c1ccc2c(c1)OCO2` reads -0.67, /
`COc1ccc(C2NC(=O)NC(O)(C(F)(F)F)C2C(=O)c2ccc(Cl)cc2)cc1` (configuration not stated) reads -2.4, /
`Cc1ccc(N2CN=C3SCC(=O)N3C2)cc1C` reads -0.87, /
`O=S1(=O)CCC(S(=O)(=O)N2CCCC2)C1` (configuration not stated) reads -0.88, -0.91

The list goes on:
SMILES	CDC25B CDK2 inh	TAR Tat displ
Cc1cccc(OCc2ccc(-c3nc(C#N)c(NCC4CCCO4)o3)o2)c1 (configuration not stated)	-0.8	0.24
Cc1ccc(-c2noc(C(C)NS(=O)(=O)c3ccc(F)cc3)n2)cc1 (configuration not stated)	-0.41	2.3
O=C(NCCCN1CCC(N2CCCCC2)CC1)C1=Cc2sc3c(c2CS1)CCCC3	/	1.2
Cc1c(C(=O)C(=O)NC(C)C)c2ccccc2n1C	-0.79	/
CCC(C)N1C(=O)c2cc3occc3n2CC1(C)C(=O)NC1CCC(C)CC1 (configuration not stated)	/	5.3
COCc1cc(=O)[nH]c(Nc2nc3ccccc3o2)n1	1.4	/
CC1=NC2c3c(oc(C(=O)NCc4ccc(N(C)C)cc4)c3C)CCC2S1 (configuration not stated)	/	1
CCOc1ccc(C2CC(=O)C3=C(C2)NC(C)=C(C(=O)OC)C3c2cccs2)cc1OC (configuration not stated)	-0.87	1.4
COc1cc(OC)cc(C(=O)Nc2cc(C(F)(F)F)cc(C(F)(F)F)c2)c1	-1.4	/
Cc1ccc2c(c1)c1c(n2C)C(NC(N)=O)CCC1 (configuration not stated)	-3.7	-1.5
CCCCN(CC)C(=O)NCc1noc2ccccc12	/	0.9
Cc1cccc(-c2noc(C(C)NS(=O)(=O)c3ccc(F)cc3)n2)c1 (configuration not stated)	1.3	1.3
Cc1cccc(Nc2cc(C)nc(-n3nc(C)cc3C)n2)c1	/	1.4
O=c1c(-c2ccccc2)coc2c(CN3CCCCC3)c(O)ccc12	-1.4	-0.06
O=C(O)c1cccn1Cc1ccccc1Cl	-1.5	/
Cc1nc2nc[nH]n2c(=O)c1NC(=O)Nc1ccccc1Cl	/	1.7
O=S(=O)(c1cc(Cl)c(Cl)s1)N1CCN(c2cc(C(F)(F)F)ccn2)CC1	-1.9	/

Quoted from the entries so far (five entries):
SMILES	CDC25B CDK2 inh	TAR Tat displ
CCOc1ccc2nc(NC(=O)Nc3ccc(OC)cc3OC)sc2c1	-2.8	1.6
COc1ccc(-c2onc(C)c2C)cc1S(=O)(=O)NCCc1sccc1C	/	0.45
CCCNC(=O)C(CC)n1nc(CC)n2c(cc3oc(C)cc32)c1=O (configuration not stated)	-0.82	0.55
COCCc1nn2c(=O)cc(COC(=O)COc3ccccc3Cl)nc2s1	/	0.58
C=CCN1C(=O)C(O)(CC(=O)c2ccc(F)cc2)c2cc(Br)ccc21 (configuration not stated)	-0.81	/

Screening results: PubChem BioAssay, Center for Chemical Genomics, University of Michigan
